VDR inhibitor: Inhibitors of the vitamin D receptor (VDR): qHTS; Vitamin D3 receptor (Homo sapiens), P11473; VDR-SRC2-3 peptide fluorescence polarization, 2 h; Potency, µM, for the others: max response, negative = inhibition, most hits filed as inhibitors; 400,000 tested, 0.93% active; AID 504847, 2011; active means well fitted inhibition curve with a large enough effect; inconclusive means small, poorly fitted or top-dose-only effect, or another doubt; inactive means no such curve, though single readings can be large or run the other way; further: series mostly up to about 120 µM
Target sequence (P11473 whole entry, looked up): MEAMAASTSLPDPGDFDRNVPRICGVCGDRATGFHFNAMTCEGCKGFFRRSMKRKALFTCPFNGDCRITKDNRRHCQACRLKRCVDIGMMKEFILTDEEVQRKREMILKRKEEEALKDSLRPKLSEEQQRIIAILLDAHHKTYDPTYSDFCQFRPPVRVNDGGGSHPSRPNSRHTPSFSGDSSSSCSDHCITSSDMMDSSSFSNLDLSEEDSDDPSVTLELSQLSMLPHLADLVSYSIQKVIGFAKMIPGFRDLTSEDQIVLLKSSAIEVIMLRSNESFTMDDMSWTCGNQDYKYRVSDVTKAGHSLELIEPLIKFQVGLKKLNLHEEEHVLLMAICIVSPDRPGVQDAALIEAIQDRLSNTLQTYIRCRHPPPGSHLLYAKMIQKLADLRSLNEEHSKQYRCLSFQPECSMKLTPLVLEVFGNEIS
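Two reagent solutions held at 4 deg C in the dark were dispensed, compounds pinned at 23 nl, and the mixture incubated 2 h at room temperature. Read-out: fluorescence polarization of VDR–SRC2-3 peptide binding.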
* hit, by the source's call; ? = inconclusive. On the % scale 0 is the no-effect control and ±100 the full control effect; potency means the concentration at half of the fitted maximal effect. These rows are one share of the data, so the mix of outcomes need not match the whole.

VDR inhibitor	SMILES
3%	CC(=O)Nc1ccc(S(=O)(=O)Nc2cccc3[nH]ncc23)cc1
13%	COc1ccc2c(COC(=O)CNS(=O)(=O)c3ccccc3)cc(=O)oc2c1
-6%	CC1(C)CC(=O)C(C2NCCc3ccccc32)=C(O)C1 (configuration not stated)
4%	Cc1ccc(Nc2ncnc3c2nc2n3CCCC2)c(Br)c1
0%	CC(=O)OCC1OC(n2c(Br)nc3c(=O)[nH]c(N)nc32)C(OC(C)=O)C1OC(C)=O (configuration not stated)
-1%	Cc1nc2ccc(NS(=O)(=O)c3ccccc3Cl)cc2s1
9%	CCOC(=O)C1=CC[C@]2(C)c3c(c4ccccc4n3C)C(=O)C1N2C
2%	COc1ccccc1-c1nnc(C2CCN(S(=O)(=O)c3ccc(CC(C)C)cc3)CC2)o1
12%	CCN(Cc1ccccc1)C(=O)Cn1cnc2c1c(=O)n(C)c(=O)n2C
7%	Cc1cc(=O)n2nc(N3CCC(C(=O)NCCc4ccccc4)CC3)sc2n1
0%	O=C(/C=C/c1ccc(S(=O)(=O)N2CCOCC2)cc1)NCCc1ccc(C(F)(F)F)cc1
7%	O=C(O)c1nc2ccccc2nc1C(=O)O
-7%	COc1cc2c(cc1OC)CN(C(=O)c1ccccc1C(=O)O)CC2
-25%	CCCCOc1cccc(C(=O)NC(=S)Nc2cccnc2)c1
-1%	CCOC(=O)c1sc(=NC(=O)CCS(=O)(=O)c2ccccc2)n(C)c1C
2%	OC(CN1C2=NCCCN2c2ccccc21)c1ccc(Br)cc1 (configuration not stated)
9%	CC1(C)C(c2ccccc2)=NC(c2ccc(F)cc2)N1O (configuration not stated)
4%	COc1cc(Nc2nnc(C)s2)c(Cl)cc1Cl
4%	CCCN1C(=O)C2(c3ccccc31)c1c(oc3ccc(C)cc3c1=O)C(=O)N2CCOC (configuration not stated)
-2%	O=C(Nc1ccc(N2CCN(C(=O)c3ccco3)CC2)c(Cl)c1)c1cccnc1
-3%	CCOc1ccc(C(C)NC(=O)c2ccccc2OCc2c(C)noc2C)cc1OCC (configuration not stated)
20%	CSc1ncccc1C(=O)OCc1ccc([N+](=O)[O-])cc1
-2%	CN(C1CCCCC1)S(=O)(=O)c1ccc2c(c1)CCC(=O)N2
7%	CCN(CC)CCCNC(=O)c1cn(CC)c2ccc(S(=O)(=O)N(C)C3CCCCC3)cc2c1=O
-2%	CCS(=O)(=O)c1nc(S(=O)(=O)c2ccc(C)cc2)c(N2CC(C)OC(C)C2)s1 (configuration not stated)

4 entries out of the list, arranged by molecular weight, low to high.
VDR inhibitor	SMILES
9%	CC1(C)C(c2ccccc2)=NC(c2ccc(F)cc2)N1O (configuration not stated)
7%	Cc1cc(=O)n2nc(N3CCC(C(=O)NCCc4ccccc4)CC3)sc2n1
-3%	CCOc1ccc(C(C)NC(=O)c2ccccc2OCc2c(C)noc2C)cc1OCC (configuration not stated)
7%	CCN(CC)CCCNC(=O)c1cn(CC)c2ccc(S(=O)(=O)N(C)C3CCCCC3)cc2c1=O

In the list so far, 2 have an NH in an aromatic ring.
VDR inhibitor	SMILES
3%	CC(=O)Nc1ccc(S(=O)(=O)Nc2cccc3[nH]ncc23)cc1
0%	CC(=O)OCC1OC(n2c(Br)nc3c(=O)[nH]c(N)nc32)C(OC(C)=O)C1OC(C)=O (configuration not stated)

Going on with the list:
VDR inhibitor	SMILES
-16%	O=C(NC1CCCCC1)C(=O)c1c(-c2ccccc2)[nH]c2ccccc12
10%	COc1c2ccccc2nc2ccccc12
25%	COc1cc(OC)c(NC(=O)C(c2ccccc2)N2Cc3ccccc3C2=O)cc1Cl (configuration not stated)
-17%	COc1cccc(NC(=O)CCP(C)(=O)O)c1
7%	CCc1ccccc1NC(=O)c1ccc(=O)n(Cc2ccc(F)cc2)c1
4%	CN1C(=O)C(=O)N(CC(=O)Nc2ccccc2OC(F)F)C1=O
19%	O=S(=O)(c1ccccc1)n1ccc(-c2cnc(-c3ccccc3)s2)n1
21%	O=C1C2CC=CCC2C(=O)N1c1n[nH]c(CCc2ccccc2)n1 (configuration not stated)
0%	O=C(CC1S/C(=N/N=C/c2cccnc2)NC1=O)Nc1ccccc1 (configuration not stated)
-6%	CC(=O)N[C@@H](Cc1c[nH]c2ccccc12)C(=O)OCC(=O)Nc1ccc(S(=O)(=O)N(C)C)cc1
-8%	COc1cc(/C=N/NC(=O)C2COc3ccccc3O2)ccc1O (configuration not stated)
-4%	Cc1cc(C(=O)Nc2cnn(Cc3ccc(Cl)cc3Cl)c2)no1
-20%	COc1ccc(C2CC(c3ccccc3)=NN2C(=O)COC(=O)c2cccc(S(=O)(=O)N(C)C)c2)cc1 (configuration not stated)
-1%	Cc1ccc(S(=O)(=O)N2CCCC2C(=O)Nc2nc3ccccc3s2)cc1 (configuration not stated)
?	CCN(CC)C(=O)c1sc(NC(=O)c2ccncc2)c(C(=O)OC)c1C
20%	COC(=O)c1ccc(OCC(=O)c2ccc(O)cc2O)cc1
4%	C[C@H](NC(=O)[C@@H]1Cc2ccccc2CN1C(=O)OC(C)(C)C)C(=O)NC1CCCCC1
-16%	CCOC(=O)N1CCN(C(=O)c2ccc3c(SCC(=O)O)c4c(nc3c2)CCC4)CC1
-9%	O=C(CSc1ccc(-c2ccc(F)cc2)nn1)N1CCN(c2ccccc2)CC1
-10%	CCC(=O)NC(Nc1nc2ccc(C)cc2s1)(C(=O)OC)C(F)(F)F (configuration not stated)
-15%	O=c1cc(N2CCc3ccccc3C2)[nH]c(=O)n1C1CCCCC1
7%	O=C(NC1CCCCC1)C1CCN(S(=O)(=O)N2CCCCCC2)CC1
-9%	CCCCN(C)CCCNC(=O)CN1N=C(c2ccc(Cl)cc2)CCC1=O
4%	CCC(=O)NC(=S)Nc1ccc(-c2nc3ccc(C)cc3s2)cc1
-6%	Cc1ccc2ccc3cccnc3c2n1
9%	CCOc1ccccc1C(=O)Nc1cc(-c2nc3cccnc3s2)ccc1C
2%	CCN1C[C@@H]2[C@@H]3C(=O)N(C)C(=O)[C@@H]3[C@](Cc3ccccc3)(C1=O)N2C(=O)c1ccc(C)cc1
4%	CC(=O)c1ccc(OC(C)c2nc3ccccc3s2)cc1 (configuration not stated)
8%	Cc1cc(C)n(C(=O)CCC2COc3ccccc3O2)n1 (configuration not stated)
6%	O=C(N/N=C/c1cccc(Oc2ccccc2)c1)c1ccc(O)cc1O
-8%	CC1CCC/C(=C\c2ccc(O)cc2)C1=O (configuration not stated)
-15%	Cc1cc(Cc2cc(C)c(N)cc2C)c(C)cc1N
-3%	CC(=O)OCC1OC(n2ccc3ccccc32)C(OC(C)=O)C(OC(C)=O)C1OC(C)=O (configuration not stated)
13%	Cn1c(=O)c2[nH]c(NN=Cc3cccc(Br)c3)nc2n(C)c1=O
5%	c1ccc(Nc2ccc3c4c(cccc24)CC3)cc1
-7%	Cc1nc(-c2cccc(S(=O)(=O)N3CCCCCC3)c2)cs1
19%	Cc1ccc(NC2(C#N)CCCC2)cc1
13%	Cn1ncc(Br)c1NC(=O)c1ccco1
-1%	CCOCCn1c(C(C)O)nc2ccccc21 (configuration not stated)
-12%	O=C(Nc1ccc(N2CCCC2)cc1)c1cc(Cl)ccc1Cl
11%	Cc1ccc(C(C(=O)NCC2CCCO2)N(C(=O)c2snc(C(N)=O)c2N)c2ccc(C(C)C)cc2)o1 (configuration not stated)
-10%	CCCOc1ccc(Cc2c(Cl)nc(SC)nc2NC)cc1
-10%	O=C(c1ccc(Cl)cc1)C1CCCN(C(=O)/C=C/c2ccccn2)C1 (configuration not stated)
-18%	Cc1ccc(NS(=O)(=O)c2ccc(NC(=O)C(C)Sc3ccc(Cl)cc3)cc2)c(C)c1 (configuration not stated)
6%	CSc1ccccc1OCc1cc(C(=O)N2C[C@H]3CC[C@H]2C3)no1
-6%	Cc1ccc(C2=Nc3c(ccc4ccccc34)C(c3ccncc3)=NN2)cc1
3%	CSc1nc2ccc(NC(=O)c3cccs3)cc2s1
-1%	Cn1nc(C(=O)NNC(=O)CCc2ccccc2Cl)c2ccccc2c1=O
0%	CCCNS(=O)(=O)c1ccc2c(c1)CCCN2C(C)=O
?	S=c1[nH]c2ccccc2n1CCOc1ccccc1

Next records follow.
VDR inhibitor	SMILES
7%	CCCC(CCC(=O)Nc1cc([N+](=O)[O-])ccc1O)C(=O)O (configuration not stated)
-7%	Cc1ccc(CSCC(=O)N/N=C/c2ccc(OCC(=O)Nc3ccc(C)cc3)cc2)cc1
8%	CC(C)Sc1nc2c(c(=O)n(C)c(=O)n2C)n1Cc1ccc(Cl)cc1
?	O=S(=O)(Nc1nc2ccccc2nc1Cl)c1ccc2ccccc2c1
6%	COc1ccc(N2CCN(S(=O)(=O)CCNC(=O)Cc3ccc(OC)c(OC)c3)CC2)cc1
1%	Cc1ccc(C(=O)N/C(=C\c2ccco2)C(=O)N2CCOCC2)cc1C
-3%	CN(C)Cc1nc2ccccc2c(=O)n1Cc1nc(-c2cccc([N+](=O)[O-])c2)cs1
3%	N#Cc1c(N)n(C2OC(CO)C(O)C2O)c2ncnc(N)c12 (configuration not stated)
-1%	CC(C)N1CCN(Cc2coc3ccccc3c2=O)CC1CCO (configuration not stated)
?	O=C(COC(=O)c1cccnc1Cl)NC(=O)c1ccc(OC(F)F)cc1
19%	COc1ccc(C(=O)Nc2ccc(C(=O)OCC(=O)c3ccccc3)cc2)cc1
-7%	Cn1nc(-c2ccc(OCC(=O)Nc3ccc(Cl)cc3)cc2)c2ccccc2c1=O
-8%	Cc1cccc(NC(=O)c2ccc([N+](=O)[O-])o2)c1C
-4%	COC1CC(O[C@H]2/C(C)=C/CC3CC(C[C@]4(CCC(C)C(C5CCCCC5)O4)O3)OC(=O)[C@H]3C=C(C)/C(=N/O)C4OC/C(=C\C=C\[C@@H]2C)[C@@]43O)OC(C)C1O (some centres not stated)
2%	CCN(CC)CCn1c(N)cc(=O)[nH]c1=O
2%	Nc1cc(C(=O)OCC(=O)NC(c2ccccc2)c2ccccc2)ccc1Cl
12%	COc1c(Cl)cc(C(=O)N(Cc2ccccc2F)C2CCS(=O)(=O)C2)cc1Cl (configuration not stated)
9%	CN(C)c1ncnc2[nH]ncc12
-7%	Cc1ccc(N2CC(C(=O)NC3CC3)CC2=O)cc1 (configuration not stated)
-6%	Cc1cc(C(=O)N2CCN(c3ncccn3)CC2)nn1C
3%	CS(=O)(=O)N(CC(=O)Nc1ccccc1Cl)c1ccc(Cl)cc1
-4%	CCn1c(COc2ccc(=O)n(-c3ccccc3)n2)nnc1SCC(=O)OC
4%	Cc1snc(SCc2c(F)cccc2Cl)c1C#N
17%	CN(C)S(=O)(=O)c1ccc(S(=O)(=O)N2CCCC2)cc1
-12%	Cc1c(C(=O)O)cnc2cc(-c3ccc(Cl)cc3)nn12

Looked up above.
Nc1cc(C(=O)OCC(=O)NC(c2ccccc2)c2ccccc2)ccc1Cl in VDR inhibitor has 2%
Cc1snc(SCc2c(F)cccc2Cl)c1C#N in VDR inhibitor has 4%
Cc1ccc(C(=O)N/C(=C\c2ccco2)C(=O)N2CCOCC2)cc1C in VDR inhibitor has 1%

(next part)
VDR inhibitor	SMILES
-9%	CC(C(=O)Nc1nccs1)c1ccc([N+](=O)[O-])cc1 (configuration not stated)
-6%	COCCn1c(=O)c(-c2cn(C)c3ccccc23)nc2cnc(Oc3ccc(OC)cc3)nc21
-3%	COC(=O)c1cc(S(=O)(=O)N2CCN(c3ccc(OC)cc3)CC2)cn1C
7%	COc1ccc(CN2C(=O)c3cccnc3C2Nc2ccc(C)cc2)cc1 (configuration not stated)
12%	CC(C)C(=O)Nc1ccc(Br)cc1Cl
13%	Cc1ccc(C(=O)NNC(=O)c2ccc(SCC3CCCO3)c([N+](=O)[O-])c2)cc1 (configuration not stated)
4%	CCOC(=O)c1cnc2ccc(C(=O)OC)cc2c1Nc1ccc(OCc2ccccc2Cl)cc1
-7%	COc1ccccc1CCn1c(=O)c(C)nc2cncnc21
-5%	CCN1C(=NCCOC)N[C@@H](c2cccc(F)c2)C(C(=O)OC)=C1C
-13%	Cc1ccc(Nc2nc(/N=C/N(C)C)n[nH]2)cc1C
0%	CC(=O)c1cc2c(=O)c3ccccc3oc2nc1C
?	CCc1ccc(C2C(C#N)=C(N)C(C#N)(C#N)C3=CCC(C(C)(C)C)CC32)cc1 (configuration not stated)
-21%	O=C(Cc1cccs1)NCCS(=O)(=O)N1CCN(c2cccc(Cl)c2)CC1
-8%	C=CCc1ccc(OCCn2nnc3ccccc32)c(OC)c1
12%	CC(=O)Nc1ccc(NS(=O)(=O)c2ccc3c(c2)oc(=O)n3C)cc1
-21%	COn1c(-c2ccc(Cl)cc2)nc2ncccc21
-14%	O=C(CCc1ccc(S(=O)(=O)N2CCOCC2)cc1)Nc1ccc2ccccc2c1
-14%	C=CCSC1=C(C#N)C(c2ccccc2)CC(=O)N1 (configuration not stated)
-1%	Cc1c(/C(O)=C2\C(=O)C(=O)N(CCCN(C)C)C2c2ccccc2)cnn1-c1ccccc1 (configuration not stated)
-1%	Cc1ccc(OCC(=O)OCC(=O)c2ccccc2)cc1C
-5%	Cc1cccc(-n2cnc(C(=O)N/N=C\c3ccc(Br)cc3)c2)n1
6%	COC(=O)c1cccc(NC(=O)Nc2cc(C(=O)NCc3cccc(F)c3)ccc2N2CCCC2)c1
10%	CCOC(=O)c1ccc(NC(=O)N2CCN(c3cccc(OC)c3)CC2)cc1
3%	O=C(CN1CCN(c2ccccc2F)CC1)NCc1ccccc1
6%	Cc1cc(OCC(=O)Nc2c(C)n(C)n(-c3ccccc3)c2=O)ccc1[N+](=O)[O-]
-10%	COc1cc(/C=C/C(=O)N2CC(C)OC(C)C2)cc(OC)c1OC (configuration not stated)

In a second layout: entries from further up
COc1cc(Nc2nnc(C)s2)c(Cl)cc1Cl
  VDR inhibitor: 4%

CCCN1C(=O)C2(c3ccccc31)c1c(oc3ccc(C)cc3c1=O)C(=O)N2CCOC (configuration not stated)
  VDR inhibitor: 4%
